# T cruzi inh: blocks replication of Trypanosoma cruzi. T. cruzi beta-gal in NIH3T3, luminescence, 90 h. inhibition, % (no concentration beside the values). 300,000 compounds, 1.4% hits;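 active = mean inhibition across valid replicates above about 55%, limit read from the data; inconclusive = mean below that limit but half or more replicates reach it; inactive = mean below it, under half of replicates reach it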;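 note: signal also drops with host cell toxicity which is not excluded here; 0% = plate median of DMSO wells and 100% = zero luminescence signal; higher percent means less beta-gal luminescence so fewer parasites; stock transfer was 50 nL into about 50 µL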
# MLL AF4-AF9 inh: MLL-AF4/AF9 protein interaction inhibition. P42568. AlphaScreen, biotin-AF4 peptide binding to FLAG-AF9. inhibition, % at 10 µM. 350,000 compounds, 0.47% hits;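 active = every replicate reaching a set inhibition limit, whatever the replicate mean, cut at about 25% in these data; inconclusive = mean inhibition reaches that limit but some replicates miss it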;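 note: 0% = plate neutral control median and 100% = total signal loss; the record names both 10 and 1 µM as test concentration; the first replicate is given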
# Target sequence (P42568 whole entry, looked up): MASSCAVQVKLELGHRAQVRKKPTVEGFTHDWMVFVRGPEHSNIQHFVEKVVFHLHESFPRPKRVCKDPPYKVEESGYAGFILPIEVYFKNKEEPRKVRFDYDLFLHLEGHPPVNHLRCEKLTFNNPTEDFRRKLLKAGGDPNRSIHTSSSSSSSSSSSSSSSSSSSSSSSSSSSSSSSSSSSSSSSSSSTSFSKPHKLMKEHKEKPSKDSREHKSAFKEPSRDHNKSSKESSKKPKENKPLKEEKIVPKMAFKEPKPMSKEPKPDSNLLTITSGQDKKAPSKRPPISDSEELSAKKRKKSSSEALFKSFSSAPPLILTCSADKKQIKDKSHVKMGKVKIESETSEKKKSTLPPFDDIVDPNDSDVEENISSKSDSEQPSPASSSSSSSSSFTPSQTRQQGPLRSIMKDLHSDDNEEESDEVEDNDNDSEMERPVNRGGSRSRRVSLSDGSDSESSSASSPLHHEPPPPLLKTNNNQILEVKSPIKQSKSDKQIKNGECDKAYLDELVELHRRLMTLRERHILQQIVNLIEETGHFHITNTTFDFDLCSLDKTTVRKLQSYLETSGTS
# rRNA inh HTS: inhibits bacterial ribosomal RNA function over humanized ribosomes | E. coli WT GFP vs humanized-ribosome RFP mutants, fluorescence, 24 h; hits give low values; DMSO median 0, no signal -100 | GFP signal change (wild-type ribosome), % (concentration not given with the values) | 350,000 compounds, 1.6% hits | AID 720706;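 active = significant combined selectivity score with lowered wild-type GFP, culture density cut under 30%, mutant RFP and density less affected; inactive = any of these conditions unmet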; note: one replicate is shown; some compounds called inactive have numbers as strong as hits
# Ecoli growth: E. coli growth inhibition. Escherichia coli growth, OD600, 23 h; hits give low values. 330,000 compounds, 0.21% hits. OD600 absorbance (test concentration not listed);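 active = OD600 absorbance below the run mean of sample wells minus 3.6 SD, in any replicate, cut at about 0.56 in these data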;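 note: stock transfer was 300 nL into about 60 µL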
# Bfl-1 A1 inh: inhibitors of the anti-apoptotic protein A1, read as caspase activation; MEF A1-2A-BIM cells, Caspase-Glo 3/7 luminescence, 3 h; percent of clofoctol response, vehicle zero; caspase activation, % (no concentration beside the values); 330,000 compounds, 0.066% hits;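 active = over half of replicate activation scores above 10%, or exactly half above 10 with the replicate mean above 10; inconclusive = replicate mean below 10 yet half the replicates above 10; inactive = over half of replicates below 10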;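 note: wells of about 30 µL received 50 nL stock; many hits fall short of the cut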
# Beta apoptosis: beta cell apoptosis inhibition; INS-1E cytokine-induced death, ATP luminescence, 48 h; percent of positive-control rescue, neutral wells zero; protection from apoptosis, % (concentration not given with the values); 300,000 compounds, 0.8% hits;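 active = all replicates at 75% or more, or half of them and the mean; inconclusive = half reach 75% but not the mean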;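 note: 0% = cytokine-treated negative control wells and 100% = positive control rescue; higher means more ATP so stronger rescue from cytokine killing; wells of about 40 µL received 100 nL stock; the first replicate is given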
# FGF22 binding: shifts melting point of recombinant human FGF22; calls only at 9.99 µM; Q9HCT0; recombinant FGF22 thermal shift, SYPRO orange fluorescence; percent of sucrose octasulfate shift, DMSO zero; 340,000 compounds, 1.5% hits;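 active = melting point raised past a set limit in the mean and every replicate; inconclusive = no clear call; three in four hits are not shown here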
# Target sequence (Q9HCT0 whole entry, looked up): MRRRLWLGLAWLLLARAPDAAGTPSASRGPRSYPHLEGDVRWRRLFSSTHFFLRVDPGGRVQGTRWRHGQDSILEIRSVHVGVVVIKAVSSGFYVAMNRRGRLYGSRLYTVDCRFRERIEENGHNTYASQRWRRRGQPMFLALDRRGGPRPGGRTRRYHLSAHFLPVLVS
# UCH37 DUB inh: blocks the human deubiquitinase UCH37; 330,000 compounds, 0.33% hits; purified proteasome/UCH37, Ub-AMC cleavage fluorescence; inhibition, % (concentration not given with the values);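 active = mean of two replicates above 20%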;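 note: 0% = compound-free wells with enzyme and 100% = wells lacking proteasome; stock transfer was 100 nL into about 20 µL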
# Target sequence (Q9Y5K5 whole entry, looked up): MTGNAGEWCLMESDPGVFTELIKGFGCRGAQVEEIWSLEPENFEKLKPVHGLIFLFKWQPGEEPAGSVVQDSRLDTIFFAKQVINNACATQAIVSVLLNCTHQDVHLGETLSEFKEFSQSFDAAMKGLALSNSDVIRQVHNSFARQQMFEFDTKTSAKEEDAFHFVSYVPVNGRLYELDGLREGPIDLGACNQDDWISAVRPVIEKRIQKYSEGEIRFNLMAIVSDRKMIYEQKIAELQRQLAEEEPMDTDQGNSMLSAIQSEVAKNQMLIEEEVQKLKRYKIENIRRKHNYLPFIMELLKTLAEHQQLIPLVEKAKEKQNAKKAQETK
#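 assay system = human UCH37 enzyme supplied as purified proteasome complex | amount = proteasome at 0.15 nM in the dispensed enzyme solution | schedule = 30 min compound-proteasome preincubation then 25 min substrate reaction, room temperature | measured by = fluorescence, ex 355 nm, em 460 nm | benchmarks = no-proteasome wells (full inhibition) and compound-free wells (no inhibition)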
# rRNA inh HTS OD600: also measured in rRNA inh HTS; calls as there; OD600 change, %; measured here: OD600 growth;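 optical density of the mix in the first replicate; 0 = DMSO median and -100 = no signal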
# rRNA inh HTS RFP: recorded beside rRNA inh HTS, whose call it bears; RFP signal change, %; measured here: RFP humanized mutant strains;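 first replicate; 0 = DMSO median and -100 = no signal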
# Starred values were filed as active, the others as inactive; i = inactive; ? = inconclusive; · = no result given.
SMILES,T cruzi inh,MLL AF4-AF9 inh,rRNA inh HTS,rRNA inh HTS OD600,rRNA inh HTS RFP,Ecoli growth,Bfl-1 A1 inh,Beta apoptosis,FGF22 binding,UCH37 DUB inh
CC1CCCC(NC(=O)COC(=O)c2cccc(NS(=O)(=O)/C=C/c3ccccc3)c2)C1C (stereo not given),-12,-0.3,10,4,-3.9,0.73,0.8,-4,i,2.2
CCn1cc(C(=O)NCCCN2CCCCCC2)c(=O)c2cc(S(=O)(=O)N3CCc4ccccc4C3)ccc21,23,5.4,4,4,1.3,0.71,0.5,-2,i,1.1
COc1ccccc1NNC(=O)C(O)(c1ccccc1OC)c1ccccc1OC,10,1.5,·,·,·,0.64,-0.4,0,·,0.2
CCOC(=O)C(C(C)=O)C(c1ccc(OC)cc1)C(C(C)=O)C(=O)OCC (stereo not given),-10,·,·,·,·,0.71,-1.1,·,·,2.4
CCN1C(=O)CC(C(=O)OC)=C1C,-7,-2.5,22,23,-3.1,0.68,0.3,1,i,2.1
CCC(C)c1ccccc1NC(=O)c1cc2cccc([N+](=O)[O-])c2[nH]1 (stereo not given),65*,9.4,-36,-54,-2.0,0.64,0.1,-4,i,5.5
CCCC(=O)Nc1ccccc1-c1nnc(SC)[nH]c1=O,-7,2.2,5,10,-1.7,0.67,0.8,-2,i,3.9
Cn1c(C(=O)N2CCN(c3ccc(Cl)cc3)CC2)cc2c(=O)[nH]c3ccccc3c21,30,·,·,·,·,0.71,-0.4,-7,·,-1.8
O=C(/C=C/Nc1cccc(C(F)(F)F)c1)c1ccc(Oc2ncccn2)cc1,3,·,·,·,·,0.76,-0.7,-3,·,-4.1
Cc1ccc(NC(=O)N2CCCCCC2)cc1,9,2.5,-3,9,-4.6,0.64,-0.1,-2,i,0.0
S=C1NC[C@H](c2ccccc2)N1CCCCC1CCCCC1,6,3.7,-16,-26,18,·,0.1,0,i,-1.1
COc1ccc(-c2csc(-c3cccs3)n2)c(OC)c1,-18,17,-11,-9,-2.2,0.69,-6.9,·,·,-14
COc1cc(C2NC(=O)NC(c3ccccc3)=C2C(C)=O)ccc1OCC#N (stereo not given),-24,·,5,-2,0.8,0.67,0.4,-10,·,7.1
CCN1CCN(C(=O)c2ccc(C)c(S(=O)(=O)Nc3cccc(C)c3)c2)CC1,0,-1.8,7,4,1.0,0.69,-0.2,5,i,6.7
CCOC(=O)C1CCN(C(=O)CCCOc2ccccc2)CC1,5,·,4,8,-2.5,0.68,-2.1,3,·,5.8
O=C(Nc1ccccc1C(=O)Nc1ccccc1)c1ccccc1F,2,-0.3,11,12,-1.9,0.66,-0.4,-11,i,-3.6
CCN(CC(=O)Nc1ccccc1OC)C(=O)c1cc(-c2ccccc2)nn1-c1ccccc1,30,-7.7,-17,-15,2.5,0.72,-0.6,-8,i,4.4
COC(=O)C1=C(N)OC2=C(C(=O)CC(C)(C)C2)C1c1ccccc1OC (stereo not given),-17,-7.7,5,8,-1.1,0.65,-0.4,-6,i,1.2
COc1ccc(NC(=O)CN(C)C(=O)Cc2coc3cc(C)c(C)cc23)cc1,-5,5.5,-12,-24,0.5,0.68,1.6,0,i,0.6
O=C(CNC(=O)c1cccs1)Nc1ccc2c(c1)OCCO2,21,0.9,4,11,0.3,0.63,0.2,-5,i,2.0
COc1ccc(CCNC(=O)CC2SC(N)=NC2=O)cc1OC (stereo not given),7,·,·,·,·,0.66,0.5,-7,·,4.0
Clc1ccccc1CSc1ncccn1,-7,-6.7,-1,-4,-2.7,0.64,-0.5,0,i,3.6
CCCN(CC(=O)Nc1ccccc1C)C(=O)c1ccc(S(=O)(=O)N2CCCCC2)cc1,4,0.5,0,10,1.9,0.71,0.5,3,i,5.3
O=C(NC(Cc1ccccc1)C(=O)NCCc1ccccn1)c1cccs1 (stereo not given),-7,1.4,16,10,0.0,0.64,0.9,2,i,1.2
C=CCN(c1ccccc1)S(=O)(=O)c1cccc(C(=O)Nc2cc(C)ccn2)c1,28,7.0,-12,-33,-4.2,0.71,0.1,-22,i,3.0
O=C(COC(=O)Cc1c[nH]c2ccccc12)Nc1ccccc1C(F)(F)F,·,-0.7,·,·,·,0.67,-1.0,-3,i,4.6
COc1ccc(C[C@H]2CN3C(=NC[C@@H]3C(C)C)N2CCNC(=O)CCC2CCCCC2)cc1,-3,·,·,·,·,·,-0.2,-14,·,2.5
Cc1c(Cl)cccc1NC(=S)NCCc1ccc(S(N)(=O)=O)cc1,-5,-0.9,2,-6,-1.0,0.7,-0.2,1,i,0.0
Nc1ccc([N+](=O)[O-])cc1C(=O)NNC(=O)c1ccco1,0,0.0,·,·,·,0.67,-0.8,-3,i,11
CSc1cccc(NC(=O)CC2Oc3ccccc3NC2=O)c1 (stereo not given),-4,-0.8,3,7,1.0,0.65,-0.1,-3,i,0.7
O=C(CC1CCCCC1)Nc1nc2ccccc2s1,3,-3.8,0,7,-3.4,0.72,-1.8,1,i,1.7
O=c1cc(-c2c(F)c(F)c(F)c(F)c2F)oc2ccccc12,-11,-1.2,-13,-4,0.5,0.66,1.0,5,i,5.1
Cc1cc(=O)oc(C)c1C(=O)O,12,·,·,·,·,0.69,-0.3,-4,·,1.4
O=C(CNC(=O)c1ccc(Br)cc1)NCC(=O)OCC(=O)c1ccccc1,2,-2.2,15,14,0.2,0.73,0.0,-5,i,2.9
Cc1cc(NCCCn2ccnc2)n2ncc(-c3ccccc3)c2n1,·,·,·,·,·,0.69,-4.0,2,·,-9.8
Cc1ccc(OCC(=O)NCCCNC(=O)c2cccnc2)cc1C,1,-5.3,7,6,2.1,0.67,-0.7,·,i,-0.1
CCOc1ccc(Nc2nc3c(c(=O)[nH]2)CCCC3)cc1,-2,·,·,·,·,0.68,0.6,5,·,0.6
CCCN1C(=O)c2ccccc2NC1c1ccc(Cl)c(Cl)c1 (stereo not given),8,1.5,-50,-76,-12,0.6,0.4,2,i,-140
CCN(CC(=O)NC(C)C)C(=O)c1ccc(Cl)cc1,-20,-0.9,20,7,-0.3,0.67,0.4,-2,i,2.5
CCCOc1ccc(-c2csc3ncn(Cc4ccc(C(=O)O)cc4)c(=O)c23)cc1,4,-3.0,-15,-15,-11,·,1.0,1,i,·
O=C(O)CSc1ccc(S(=O)(=O)N2CCCC2)cn1,·,-1.6,6,10,-1.2,0.7,·,·,i,2.0
CC(=O)N1CCN(c2ccc(NC(=O)c3cccc(Cl)c3Cl)cc2)CC1,2,2.5,0,8,-1.0,·,?,0,i,·
CCN(CC)S(=O)(=O)c1cc(C(=O)Nc2ccccc2[N+](=O)[O-])ccc1Cl,-33,·,·,·,·,0.64,?,-8,·,0.5
Cc1ccc(/C=N/Nc2cc(C)nc(NCc3ccccc3)n2)cc1,27,14,-28,-62,21,·,-0.3,28,i,·
Nc1ccc(SCC(=O)Nc2cccc([N+](=O)[O-])c2)cc1,0,-1.6,1,-9,-2.7,0.72,-0.1,0,i,1.0
O=C(CCSc1nc(-c2ccco2)cc(C(F)(F)F)n1)NCC1CCCO1 (stereo not given),11,·,·,·,·,0.69,-0.4,-3,·,-0.7
C=CCNC(=O)C(C#N)c1nc2ccccc2nc1N1CCN(Cc2ccccc2)CC1 (stereo not given),-11,·,·,·,·,0.71,-0.5,0,·,-193
CCS(=O)(=O)Nc1ccc(C2=NN(C(=O)c3ccco3)C(c3ccc(C)cc3)C2)cc1 (stereo not given),18,?,-13,-8,25,0.74,1.2,8,i,-0.4
CC(=O)Nc1ccc(S(=O)(=O)NC2CCS(=O)(=O)C2)cc1Cl (stereo not given),-14,-1.5,12,6,-0.6,0.69,0.4,-1,i,2.8
CC(=O)Nc1ccc(NC(=O)CCn2c(=S)oc3ccccc32)cc1,-2,-3.1,14,7,-1.9,0.71,0.8,-3,i,1.4
Cc1cc(C(=O)N2CCC(C(=O)O)CC2)c(C(F)(F)F)o1,-6,2.1,·,·,·,0.67,-0.2,2,i,2.1
COCC(=O)Nc1ccccc1C(=O)Nc1ccc(OC)cc1,-10,·,·,·,·,0.69,0.1,-11,·,2.5
Cc1ccc(S(=O)(=O)NNC(=O)c2cccc(O)c2)cc1,-15,48*,12,18,5.0,0.73,0.3,0,i,1.7
COc1ccc(NC(=O)C(=O)NCCCO)cc1Cl,-13,-4.4,3,4,-1.3,0.66,-1.1,-8,i,3.2
O=C(NCCS(=O)(=O)N1CCN(c2ccccc2)CC1)c1ccco1,-2,0.9,-2,-8,-1.7,0.66,-1.3,0,i,3.4
O=C(Nc1ccc([N+](=O)[O-])cc1)c1cccc(S(=O)(=O)Nc2cccnc2)c1,9,2.7,-4,-4,-1.7,·,-0.5,-2,i,·
COc1ccc(CCNC(=O)Cn2nnc(C(=O)Nc3ccc(Br)cc3)c2N)cc1OC,-18,2.5,1,10,-0.8,0.65,-0.3,5,i,3.6
O=C(Cn1cc([N+](=O)[O-])cn1)NCc1ccc(-n2cccn2)cc1,-3,-1.3,6,8,-0.6,0.65,0.5,-7,i,0.8
O=C(NCCc1nc2ccccc2[nH]1)/C(=C/c1ccco1)NC(=O)c1ccco1,-11,·,·,·,·,0.73,1.1,-4,·,3.7
O=C(CCC1COc2ccccc2O1)NCc1ccco1 (stereo not given),0,·,·,·,·,0.73,-0.7,-3,·,1.5

# Later entries.
SMILES,T cruzi inh,MLL AF4-AF9 inh,rRNA inh HTS,rRNA inh HTS OD600,rRNA inh HTS RFP,Ecoli growth,Bfl-1 A1 inh,Beta apoptosis,FGF22 binding,UCH37 DUB inh
Cc1ccccc1N1C(=O)c2sc3nc4c(c(=O)n3c2C1=O)CCC4,-34,·,·,·,·,0.66,1.2,6,·,4.2
Oc1ccc(/C=N/N(c2ccccc2)c2ccccc2)c(O)c1O,0,9.5,-5,-2,-1.2,·,-0.4,-7,i,·
Cc1cc(C)cc(C(=O)Nc2cc3c4c(c2)CC(=O)N4CCC3)c1,-14,-8.3,-9,-13,3.6,0.69,-0.7,0,i,4.9
CCC(=O)c1ccc(Oc2nc3c(c(=O)n(C)c(=O)n3C)n2CC)cc1,-3,-2.1,0,6,0.8,0.65,-0.2,-4,i,1.1
COC(=O)C1CN(C(=O)C(C)Oc2ccccc2F)c2ccccc2O1 (stereo not given),-5,-0.4,5,-1,-4.1,0.68,0.1,-4,i,0.6
COn1c(=O)c(=O)n(O)c2ccccc21,-13,·,·,·,·,0.64,0.0,5,·,2.0
CCOC(=O)C(Cc1ccnnc1)=NO,·,-2.5,9,7,4.3,0.66,·,·,·,0.2
O=C(OCC#CCSc1nnc(-c2cccc3ccccc23)o1)c1ccc(Cl)cc1,·,5.2,9,10,-1.1,0.7,0.0,1,i,1.2

# Screening results from PubChem BioAssay.

# Some of the compounds tested; count on the stated rates, not on these rows.
